# FGF22 binding – binders of human FGF22 protein, primary screen, FGF22 synaptogenesis inhibitor project, biophysical, thermal shift, single point; calls only at 9.99 µM; 340,000 tested, 1.5% active; recombinant FGF22 thermal shift, SYPRO orange fluorescence; percent of sucrose octasulfate shift, DMSO zero; AID 651658, 2012; Fibroblast growth factor 22 (Homo sapiens), Q9HCT0;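 active = melting point raised past a set limit in the mean and every replicate; three in four hits are not shown here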
# Target sequence (Q9HCT0 whole entry, looked up): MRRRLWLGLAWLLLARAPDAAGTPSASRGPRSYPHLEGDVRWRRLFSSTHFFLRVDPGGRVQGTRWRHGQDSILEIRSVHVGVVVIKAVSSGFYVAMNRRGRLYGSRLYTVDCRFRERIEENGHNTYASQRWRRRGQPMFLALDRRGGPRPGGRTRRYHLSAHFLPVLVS
# AF4-AF9 inh – inhibitors of AF4 peptide binding to AF9, primary screen, biochemical, AlphaScreen, biotin-AF4 peptide, FLAG-AF9, single point. 350,000 tested, 0.47% active. Protein AF-9 (Homo sapiens), P42568. inhibition, % at 10 µM. AID 651704, 2012;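 active = every replicate reaching a set inhibition limit, whatever the replicate mean, cut at about 25% in these data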;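 also: 0% = plate neutral control median and 100% = total signal loss; the record names both 10 and 1 µM as test concentration; the first replicate is given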
# Target sequence (P42568 whole entry, looked up): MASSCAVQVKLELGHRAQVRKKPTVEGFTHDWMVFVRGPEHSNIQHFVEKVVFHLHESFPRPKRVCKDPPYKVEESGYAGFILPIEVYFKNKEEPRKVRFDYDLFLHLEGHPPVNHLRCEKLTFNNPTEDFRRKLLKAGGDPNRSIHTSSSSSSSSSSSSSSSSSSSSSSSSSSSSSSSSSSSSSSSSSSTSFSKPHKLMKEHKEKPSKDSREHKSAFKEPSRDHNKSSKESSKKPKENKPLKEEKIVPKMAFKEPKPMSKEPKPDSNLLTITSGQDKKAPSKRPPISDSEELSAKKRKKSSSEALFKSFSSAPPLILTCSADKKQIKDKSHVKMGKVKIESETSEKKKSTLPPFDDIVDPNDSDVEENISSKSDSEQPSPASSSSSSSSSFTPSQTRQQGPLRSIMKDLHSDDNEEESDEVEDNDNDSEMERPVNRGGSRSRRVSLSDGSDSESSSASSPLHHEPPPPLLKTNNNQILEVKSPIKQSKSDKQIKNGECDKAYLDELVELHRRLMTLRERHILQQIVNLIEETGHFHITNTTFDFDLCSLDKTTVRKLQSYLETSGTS
# UCH37 DUB inh – inhibitors of human UCH37 deubiquitinase, primary screen, biochemical, Ub-AMC cleavage, fluorescence; Ubiquitin carboxyl-terminal hydrolase isozyme L5 (Homo sapiens), Q9Y5K5; purified proteasome/UCH37; inhibition, % (no concentration beside the values); 330,000 tested, 0.33% active; AID 588478, 2011;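 active = mean of two replicates above 20%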;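 also: 0% = compound-free wells with enzyme and 100% = wells lacking proteasome; stock transfer was 100 nL into about 20 µL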
# Target sequence (Q9Y5K5 whole entry, looked up): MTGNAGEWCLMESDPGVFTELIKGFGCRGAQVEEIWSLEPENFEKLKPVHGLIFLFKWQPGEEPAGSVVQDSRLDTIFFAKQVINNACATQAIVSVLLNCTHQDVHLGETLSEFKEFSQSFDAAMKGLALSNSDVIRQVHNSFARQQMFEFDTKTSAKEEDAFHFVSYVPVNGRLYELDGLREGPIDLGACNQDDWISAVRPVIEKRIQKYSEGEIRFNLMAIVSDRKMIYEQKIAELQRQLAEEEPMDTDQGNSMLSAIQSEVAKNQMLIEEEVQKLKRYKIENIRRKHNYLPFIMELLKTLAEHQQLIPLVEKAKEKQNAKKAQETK
#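 System: Proteasome-associated human UCH37 deubiquitinase; Input: 0.15 nM proteasome in added enzyme buffer; Also added: Ub-AMC substrate from 1 µM stock; Incubation: 30 min compound-proteasome preincubation then 25 min substrate reaction, room temperature; Detection: fluorescence, ex 355 nm, em 460 nm; Read-out: % inhibition of Ub-AMC cleavage fluorescence; Benchmarks: no-proteasome and no-compound wells.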
# Beta apoptosis – inhibitors of cytokine-induced beta cell apoptosis, primary screen, luminescence; INS-1E cytokine-induced death, ATP luminescence, 48 h; percent of positive-control rescue, neutral wells zero; AID 435005, 2010; 300,000 tested, 0.8% active; protection from apoptosis, % (test concentration not listed);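 active = all replicates at 75% or more, or half of them and the mean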;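 also: 0% = cytokine-treated negative control wells and 100% = positive control rescue; higher means more ATP so stronger rescue from cytokine killing; wells of about 40 µL received 100 nL stock; the first replicate is given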
# T cruzi inh – inhibitors of intracellular T. cruzi growth, primary screen, luminescence, NIH3T3 host cells; 300,000 tested, 1.4% active; inhibition, % (concentration not given with the values); T. cruzi beta-gal in NIH3T3, 90 h; AID 1885, 2009;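 active = mean inhibition across valid replicates above about 55%, limit read from the data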;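 also: signal also drops with host cell toxicity which is not excluded here; 0% = plate median of DMSO wells and 100% = zero luminescence signal; higher percent means less beta-gal luminescence so fewer parasites; stock transfer was 50 nL into about 50 µL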
# Bfl-1 A1 inh – caspase 3/7 activation in MEF A1-2A-BIM cells, primary screen, A1 inhibitor project, cell-based, luminescence, HTS; AID 2462, 2010; caspase activation, % (no concentration beside the values); 330,000 tested, 0.066% active; Caspase-Glo 3/7 luminescence, 3 h; percent of clofoctol response, vehicle zero;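 active = over half of replicate activation scores above 10%, or exactly half above 10 with the replicate mean above 10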;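 also: wells of about 30 µL received 50 nL stock; many hits fall short of the cut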
# Ecoli growth – E. coli growth inhibition, primary screen, OD600. Escherichia coli growth, 23 h; hits give low values. OD600 absorbance (concentration not given with the values). 330,000 tested, 0.21% active. AID 1053175, 2014;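 active = OD600 absorbance below the run mean of sample wells minus 3.6 SD, in any replicate, cut at about 0.56 in these data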;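 also: stock transfer was 300 nL into about 60 µL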
# rRNA inh HTS – reduced GFP signal of wild-type E. coli, primary screen, bacterial rRNA inhibitor project, GFP/RFP fluorescence, OD600, single point; GFP signal change (wild-type ribosome), % (concentration not given with the values); 350,000 tested, 1.6% active; E. coli WT GFP vs humanized-ribosome RFP mutants, 24 h; hits give low values; DMSO median 0, no signal -100;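 active = significant combined selectivity score with lowered wild-type GFP, culture density cut under 30%, mutant RFP and density less affected; inactive = any of these conditions unmet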; also: one replicate is shown; some compounds called inactive have numbers as strong as hits
# rRNA inh HTS OD600 – second read-out of rRNA inh HTS, no call of its own (marks repeat the call); OD600 change, %; measured here: OD600 growth;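 optical density of the mix in the first replicate; 0 = DMSO median and -100 = no signal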
# rRNA inh HTS RFP – recorded beside rRNA inh HTS, whose call it bears; RFP signal change, %; measured here: RFP humanized mutant strains;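 first replicate; 0 = DMSO median and -100 = no signal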
# * marks the source's active call; other numbers are inactive results; i = inactive; x = no result given. Only part of the results is shown (hit frequency here may not be typical).
SMILES,FGF22 binding,AF4-AF9 inh,UCH37 DUB inh,Beta apoptosis,T cruzi inh,Bfl-1 A1 inh,Ecoli growth,rRNA inh HTS,rRNA inh HTS OD600,rRNA inh HTS RFP
Cc1ccc(NC(=S)NC(=O)c2c(-c3ccccc3Cl)noc2C)cc1,x,x,1.1,-4,6,-0.9,0.68,x,x,x
Cc1cccc(NC(=O)c2cccc(N3C(=O)C4CCC(C)CC4C3=O)c2)c1C (centres undefined),i,-1.6,-0.4,x,1,0.8,0.67,4,10,0.8
CSc1nnc2c(n1)OC(c1cccn1C)N(C(C)=O)c1ccccc1-2 (centres undefined),x,x,2.9,-5,-17,-0.8,0.65,x,x,x
COc1cccc(C(=O)NCCS(=O)(=O)NCCCc2ccccc2)c1,i,-3.5,x,-5,4,-1.1,x,-11,-16,-1.4
COc1ccc(C(=O)NCCSCc2cccc(Cl)c2)cc1OC,i,1.3,4.6,-8,4,0.2,0.67,-14,-21,2.7
Cc1cc(NC(=O)COC(=O)/C=C/c2ccc(C)o2)no1,i,0.6,0.8,0,x,1.2,0.7,13,12,2.4
COc1ccc(NC(=O)CN(C)C(=O)c2oc3ccccc3c2C)cc1,i,-2.3,1.3,-1,7,-0.6,0.64,-14,-20,-9.1
Cc1cccc(N2CCN(C(=O)c3ccc(NS(=O)(=O)c4ccc5[nH]c(=O)[nH]c5c4)cc3)CC2)c1C,i,3.9,0.1,-3,-10,0.8,0.72,-3,-2,15
C/C(Cl)=C\Cn1c(Nc2ccc(C)cc2)nc2c1c(=O)n(C)c(=O)n2C,x,x,1.9,-5,25,-0.3,0.71,x,x,x
COc1ccc(CN(C)S(=O)(=O)c2nnc(NC(=O)c3ccccc3)s2)cc1OC,i,-2.3,1.9,9,7,-1.2,0.66,16,18,3.0
Cc1ccn2cc(C(=O)NCc3ccco3)nc2c1,i,-1.0,-4.5,-4,-5,0.2,0.6,-7,-7,0.3
COc1ccc(-c2ccc(NS(=O)(=O)c3cc([N+](=O)[O-])ccc3C)cc2)nn1,i,-3.0,3.7,x,-1,0.2,0.62,-15,-8,17
Cc1cc(F)c(F)c(C(=O)NC2CC2)c1Cl,x,x,-1.3,-6,-2,-0.4,0.69,x,x,x
CC(C)(C)NC(=O)N1c2ccccc2Sc2ccccc21,i,-0.2,0.5,-2,-9,-0.2,0.62,-16,-23,-0.1
Cn1nc(-c2ccc(Cl)cc2)c2cc(C(=O)NCc3ccco3)sc21,i,-0.3,-17,x,33,1.7,0.75,-30,-26,-17
Cc1nc2ccccc2nc(C)c1=NOCC(=O)N(c1ccccc1)C(C)C,i,2.8,1.3,-4,-11,0.7,0.61,0,-3,3.1
O=C1NCCCC1C(=O)N/N=C/c1cccc(O)c1 (centres undefined),i,-2.1,x,3,-10,1.2,x,-1,1,-1.6
Cn1cnc(C(=O)N2CCc3ccccc3C2)c1C(=O)N1CCc2ccccc2C1,i,-11,4.9,-4,x,-0.4,0.66,7,7,-4.9
COC(=O)CNC(=O)COC(=O)c1cc(SC)ccc1Cl,i,-3.6,-6.8,4,-10,-0.4,0.69,8,15,0.5
COC(=O)C1=CO[C@@H](O)C2C(CO)=CCC12 (some centres undefined),i,2.4,1.9,7,x,0.1,x,9,15,45
CCNc1ccc(C(=O)OCC(=O)NCc2ccccc2Cl)cc1[N+](=O)[O-],x,x,3.6,3,-20,0.3,0.72,x,x,x
CCn1nc(C)c(C2C(C#N)=C(N)OC3=C2C(=O)CCC3)c1C (centres undefined),x,x,2.0,-6,4,-1.6,0.69,x,x,x
CC1CN(CCCCOc2cccc(Oc3ccccc3)c2)CC(C)O1 (centres undefined),i,7.1,0.7,-2,56*,-0.4,0.68,-27,-18,-4.3
N#Cc1ccccc1NC(=O)CSc1nnc(-c2ccccc2O)n1-c1ccccc1,x,x,0.4,-1,4,1.2,0.67,x,x,x
CC(C)NC(=O)c1ccccc1NC(=O)Cc1ccc(Cl)cc1,x,x,2.9,-7,-18,-0.1,0.65,x,x,x
N#Cc1c(N)nc2c(c1-c1ccc3c(c1)OCO3)CCCCCC2,x,x,-3.3,x,4,1.0,0.74,x,x,x
C[C@@H](CN=[N+]=[N-])CN1CC[C@H](O)CCC1=O,i,-5.1,3.8,-10,-17,0.3,x,2,7,3.7
O=C(c1csc2ccccc12)n1cccn1,i,1.0,1.6,-9,x,-0.3,0.73,1,-2,1.5
O=C(O/N=C1\CCS(=O)(=O)c2sccc21)c1c(F)cccc1F,i,-0.6,x,-6,0,0.4,x,22,34,7.3
C1=C2C[N+]3(CCCC3)CC2Cc2ccc3ccccc3c21 (centres undefined),x,x,0.7,2,-5,-0.3,0.71,-7,-3,2.2
O=C(Cn1c(=O)sc2ccccc21)Nc1ccc2c(c1)OCCO2,x,x,0.4,6,15,-0.1,0.67,x,x,x
CC(C)(Oc1ccc(Cl)cc1)C(=O)NCC(c1ccco1)N1CCCCC1 (centres undefined),i,2.5,-0.8,8,2,-0.6,0.68,-9,-12,9.3
CCN(CC(=O)NC1CCS(=O)(=O)C1)c1nc(-c2cccnc2)nc2ccccc12 (centres undefined),x,x,2.1,-2,-9,0.4,0.68,x,x,x
CCS(=O)(=O)c1ccc2c(c1)N(S(=O)(=O)c1ccc(Cl)cc1)CC(C(=O)O)O2 (centres undefined),x,-2.5,2.8,-3,3,0.0,0.72,15,13,1.4
CCCN1C(=O)C(=O)c2cc(C)ccc21,i,-4.4,0.1,-5,x,3.3,0.71,10,18,4.7
NC(=O)Cc1ccc(Nc2nnc(-c3ccccc3)c3ccccc23)cc1,i,1.2,-0.1,-7,54,-0.5,0.67,-40,-42,-18
CSc1nc2sc3c(c2c2nncn12)CCC3,x,x,5.7,8,12,0.6,0.68,x,x,x
CCc1ccc2c(c1)cc(CN(C(=S)Nc1ccc(Cl)cc1)C1CC1)c1nnnn12,x,x,6.0,-11,-5,-1.1,0.73,x,x,x
CN(C)S(=O)(=O)c1cc(NC(=O)COC(=O)Cc2ccc(Cl)cc2Cl)ccc1Cl,x,x,6.6,-3,17,0.9,0.7,x,x,x
COC(=O)c1cccc(NC(=S)Nc2cccc(Cl)c2C)c1,i,2.4,2.5,-3,-8,1.0,0.61,5,-4,-2.6

# Sorted by value in UCH37 DUB inh (low to high): three of the compounds above.
SMILES	UCH37 DUB inh
Cn1nc(-c2ccc(Cl)cc2)c2cc(C(=O)NCc3ccco3)sc21	-17
COc1ccc(C(=O)NCCSCc2cccc(Cl)c2)cc1OC	4.6
CN(C)S(=O)(=O)c1cc(NC(=O)COC(=O)Cc2ccc(Cl)cc2Cl)ccc1Cl	6.6

# Continued:
SMILES,FGF22 binding,AF4-AF9 inh,UCH37 DUB inh,Beta apoptosis,T cruzi inh,Bfl-1 A1 inh,Ecoli growth,rRNA inh HTS,rRNA inh HTS OD600,rRNA inh HTS RFP
CCOC(=O)c1sc(NC(=O)C(C)Sc2nc(N)cc(=O)[nH]2)nc1C (centres undefined),i,-1.6,5.5,-4,4,0.1,0.68,6,2,-7.0
Nc1nc(SCC(=O)N2CCCCCC2)[nH]c(=O)c1NC(=O)c1ccco1,i,-2.1,3.0,1,x,0.1,0.72,-1,10,-0.3
CNc1ncnc2c1ncn2[C@@H]1O[C@H](CO)[C@@H](O)[C@H]1O,i,3.3,4.1,2,x,0.2,x,x,x,x
COc1cccc(C(=O)OCC(=O)NCCCc2ccccc2)c1,i,-1.5,3.0,-4,-7,1.8,0.69,-7,-16,-1.5
C=C(C)Cn1c(SCC(=O)O)nnc1-c1ccc(C(C)(C)C)cc1,x,x,-1.5,-1,-10,-0.3,0.71,x,x,x
CC(CN1CCOCC1)OC(=O)c1ccccc1Br (centres undefined),x,x,-0.5,4,-18,0.6,0.69,x,x,x
CCCOc1ccc(CCc2n[nH]c(=S)n2Cc2ccccc2)cc1,x,x,1.9,20,5,0.1,0.72,x,x,x
Cc1cc(=O)[nH]c(SCCc2ccccc2)n1,i,-9.9,x,0,-16,1.3,x,2,-1,-0.5
O=C1CCCN1CCCNC(=S)Nc1ccc(F)c(Cl)c1,i,-1.8,2.8,-1,2,-0.7,0.6,-46,-55,-12
COc1ccc(/C=C/C(=O)Nc2cc(S(=O)(=O)N3CCOCC3)ccc2OC)cc1,i,5.1,4.4,7,x,-0.3,0.69,9,6,1.9
COc1cc2cc(C(c3nnnn3C3CCCC3)N3CCCCC3)c(=O)[nH]c2cc1OC (centres undefined),x,x,-101,1,-1,-0.2,0.7,x,x,x
Fc1ccc(-n2c(=S)[nH]c3cccnc32)cc1,i,1.2,-2.9,-3,-10,1.2,0.65,3,8,2.3
CC(=O)Nc1ccc(NC(=O)CSc2nc3nc(-c4cccs4)cc(C(F)(F)F)c3c(=O)[nH]2)cc1,i,-2.4,-32,2,-18,-0.2,0.68,-15,-6,5.3
Cn1c(C(O)c2ccccc2F)nc(Cl)c1Cl (centres undefined),x,x,2.0,-10,-7,-0.1,0.72,x,x,x
N#C/C(=C\c1ccc([N+](=O)[O-])cc1)c1ccccn1,i,4.3,5.2,7,40,-4.3,0.66,-21,-23,-7.8
CCOC(=O)c1cnn(-c2ccccc2)c1NC(=O)CN1CCOCC1,i,-4.3,0.1,1,-15,-0.4,0.62,15,5,-1.7
Cc1nn(-c2ccc(F)cc2F)c(=O)c2noc(C)c12,i,-1.6,4.1,2,-12,0.3,0.64,x,x,x
Cc1c(O)ccc2c(CN(C)Cc3ccccc3)cc(=O)oc12,i,-10,-71,-2,2,-0.6,0.63,-25*,-17*,1.6*
CCN(CC)C(=O)c1ccccc1NC(=O)c1cccc(S(=O)(=O)N(CC)CC)c1,i,0.1,0.5,-1,-1,-0.3,0.69,-8,-12,-3.7
C=CCNC(=O)C12CCC(C)(C(=O)[C@H]1Br)C2(C)C (some centres undefined),i,5.6,-0.7,-1,-15,0.5,0.72,10,-7,-1.2
COc1ccc(/C=C/C(=O)N(C)C2CCCCC2)cc1Br,i,-0.1,0.9,8,15,-1.2,0.68,-3,-1,0.5
Cc1cccnc1NC(=O)CN1C(=O)c2ccccc2S1(=O)=O,i,2.0,-0.1,-8,-2,1.7,0.65,8,11,-1.4
COC(=O)C1=C(C)NC(=O)/C1=C\c1cc(C)n(-c2cc(C)cc(C)c2)c1C,x,x,1.2,-2,27,0.2,x,x,x,x
CC(=O)c1cccc(NC(=O)N2CCCC2C(=O)NCCC(C)C)c1 (centres undefined),x,x,2.0,-4,-14,-0.2,0.77,x,x,x
CC1(C)NC(=O)N(CCOc2ccc([N+](=O)[O-])cc2)C1=O,i,-1.6,2.2,1,-12,0.1,0.65,5,5,-1.0

# Screening results (PubChem BioAssay)
